VCAM-1 rise = enhancers of VCAM-1 display on endothelial cells, cell-based, plate reader, pooled HUVEC, TNFa stimulus (AID 455). HUVEC TNFa-induced VCAM-1 immunofluorescence, plate reader; numbers were filed only for top-ranked candidate wells. augmentation, % at 5 µM. hit rate 0.2% among 10,000;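 active = a compound raising TNF-alpha-driven VCAM-1 surface staining, with its hit status upheld on visual or statistical review; inactive = the rest, including hits rejected on review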;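 also: 0% = TNFa with vehicle and 100% = strongest image-checked hit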
26S disassembly = inhibitors of ATP-driven 26S proteasome dissociation, primary screen, biochemical, bead-based flow cytometry, GFP-tagged proteasome | anti-FLAG beads, GFP-proteasome disassembly | inhibition of disassembly, % (concentration not given with the values) | hit rate 0.2% among 24,000 | AID 751, 2007;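 active = above 40%; inconclusive = likely self-fluorescent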;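 also: plate controls were ATP control with full disassembly for no effect and ATP-gamma-S intact proteasomes for full effect; higher percent means more bead fluorescence retained so stronger block of disassembly; stock transfer was 100 nL into about 10 µL; wells with too few beads may also be inconclusive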
The depositor's hits bear a star; i = inactive; ? = inconclusive; / = not tested or not shown.

SMILES | VCAM-1 rise | 26S disassembly
O=C(CN1C(=O)C2C3C=CC(C3)C2C1=O)Nc1ccc2c(c1)OCCO2 (stereo not given) | / | -0.2
O=C1CSC(c2cn(-c3ccccc3)nc2-c2cccs2)N1CC1CCCO1 (stereo not given) | i | -0.2
CSC1=NCCN1C(=O)C(C)Oc1ccccc1 (stereo not given) | / | 0.1
CCOc1ccc(N(CC(=O)NC2CCCC(C)C2C)S(=O)(=O)c2c(C)noc2C)cc1 (stereo not given) | i | -0.2
Cc1nc2sc(C(c3ccccc3)N3CCOCC3)c(O)n2n1 (stereo not given) | / | -0.4
O=C(Nc1ccc(Cl)cc1)N1CCSCC1 | i | -2.3
CN1[C@@H]2CC(OC(=O)[C@H](CO)c3ccccc3)C[C@H]1[C@@H]1O[C@@H]12 (stereo not given in full) | i | 0.2
CC(c1nnc(SCC(=O)Nc2sccc2C#N)n1-c1ccc(Cl)cc1)N(C)C (stereo not given) | i | 0.7
O=C(c1cc2ccccc2oc1=O)N1CCCN(C(=O)c2cc3ccccc3oc2=O)CC1 | / | -1.0
COc1cccc2c(=O)c3c(cnn3C)n(C)c12 | i | 1.0
Cc1cc(C)n2nc(SCC(=O)N(C)Cc3ccccc3)nc2n1 | i | -1.9
CC1CN(C(=O)c2scc3c2OCCO3)CC(C)O1 (stereo not given) | i | -0.6
COc1ccc(S(=O)(=O)NCc2csc(C)n2)cc1 | / | 0.8
COc1ccc(-c2ccc(=O)n(CC(=O)NCc3ccco3)n2)cc1 | / | -0.4
Cc1ccccc1CN1CCCNC1=O | / | -5.7
O=C(c1cccc(F)c1)N1C2C=CC(C2)C1(C(F)(F)F)C(F)(F)F (stereo not given) | / | -1.4
CC1CCCCN1CCNC(=O)C1CCN(S(=O)(=O)c2cccc3cccnc23)CC1 (stereo not given) | i | ?
Cn1c(=O)oc2cc(S(=O)(=O)N3CCc4ccccc4C3)ccc21 | / | 0.1
CCOC(=O)N1CCN(CCC(=O)Nc2ccc(OC(F)(F)F)cc2)CC1 | / | -0.4
Cn1c(=O)cc(OCCCC(=O)N2CCCCC2)c2ccccc21 | i | -0.6
O=C(NC1CCCCCC1)C1CCCN(S(=O)(=O)c2cccs2)C1 (stereo not given) | i | 0.1
O=C(c1ccccc1S(=O)(=O)NCc1ccccc1)N1CCCCC1 | / | -1.1
O=C(CCCCCN1C(=O)c2ccccc2C1=O)Nc1ccc(S(=O)(=O)N2CCCCC2)cc1 | / | -0.2
CCCCN(C)C(=O)c1ccc(CS(=O)(=O)c2ccccc2C)o1 | i | 0.0
Cc1cc(NC(=O)c2ccc3nc(-c4ccccc4)c(-c4ccccc4)nc3c2)no1 | i | 0.4
COc1ccc(-c2noc(-c3ccccc3F)n2)cc1 | / | 24.0
CCN(CC)S(=O)(=O)c1ccc2[nH]cc(C(=O)NCCN3CCCCCC3)c(=O)c2c1 | / | 0.3
O=C(CN(Cc1ccco1)C(=O)c1cc(=O)[nH]c2ccccc12)Nc1ccccc1Br | i | 0.0
CCOC(=O)C(C)Sc1ncnc2c1nnn2-c1ccc(F)cc1 (stereo not given) | / | -1.6
O=C(CCCn1c(=S)[nH]c2ccccc2c1=O)N1CCCCC1 | i | -4.7
O=C1c2cccnc2C(O)N1Cc1cccs1 (stereo not given) | / | -3.9
COc1ccc(C(=O)CSc2nc(C)cc(=O)[nH]2)cc1 | i | -1.0
COc1ccc(-c2nn3c(-c4cccc(C)c4)nnc3s2)cc1OC | i | 3.5
O=C(Cn1cnc2c(cnn2-c2ccc(F)cc2)c1=O)N1CCCc2ccccc21 | i | -0.8
COc1cccc(NC(=O)Cn2nnc(C(=O)Nc3ccccc3)c2N)c1 | / | -0.7
O=C(NCc1cccs1)C1CCC(CNS(=O)(=O)c2cccs2)CC1 (stereo not given) | / | 4.0
O=C(CCCn1c(=O)[nH]c2ccccc2c1=O)NC1CCCCCC1 | / | -1.6
CCOC1(OCC)N=C(N)C2(C#N)C(c3ccc(NC(C)=O)cc3)C12C#N (stereo not given) | / | 0.9
CN(C)C(=O)N1CCC(C(=O)NC2CCCCCCC2)CC1 | i | 1.0
Cc1nonc1NC(=O)OC1CCCCC1 | / | -1.1
Cc1ccc(Nc2cc(=O)n(C3CCCCC3)c(=O)[nH]2)cc1C | / | 10.9
COc1ccc(-n2c(CNC(=O)c3cc(OC)c(OC)c(OC)c3)n[nH]c2=S)cc1 | / | -1.4
COc1ccc(OC)c(C2=NOC(C(=O)Nc3c(C)n(C)n(-c4ccccc4)c3=O)C2)c1 (stereo not given) | i | 1.0
COc1ccc(NC(=O)CN2CCN(CC(=O)Nc3ccccc3Cl)CC2)cc1 | / | 0.3
COC(=O)C(C)Sc1ccc2nnc(-c3ccc(F)cc3)n2n1 (stereo not given) | / | -1.3
O=C(CCN1C(=O)COc2ccccc21)N1CCN(c2ccccn2)CC1 | i | -1.6
CCCCc1c(O)nc(SCC(=O)c2ccccc2)[nH]c1=O | i | -2.4
Cc1ccccc1OCc1nc2ccccc2c(=O)n1/N=C/c1ccco1 | i | 3.0
Cc1ccccc1OCc1nnc2n1CC(C)S2 (stereo not given) | 29.4 | -0.9
COc1ccc(/C=N/O)cc1COc1ccc(NC(C)=O)cc1 | i | 0.0
COc1cc(S(=O)(=O)N2CCN(Cc3ccc4c(c3)OCO4)CC2)c(C)cc1C | / | 0.7
CCCOc1ccc(C2C(=O)N(C3CCCCC3)CC(=O)N2C2CC2)cc1OC (stereo not given) | / | 0.1
CCOc1ccc2nnnn2n1 | / | 0.6
O=C(NCc1ccc(F)cc1)C1CCCN(S(=O)(=O)c2cccnc2)C1 (stereo not given) | / | -0.6
Cc1ccc(-c2c3c(=O)n(C)c(=O)n(C)c3cn2CCCN2CCOCC2)cc1 | i | -0.5
CN(C)CCNc1oc(-c2ccccc2F)nc1C#N | i | -0.5
CCOC(=O)c1[nH]c(C)c(C(=O)Nc2ccc(C)c(F)c2)c1C | / | 4.2
Nc1nc(C(=O)N2CCOCC2)nn1C(=O)c1ccc(Cl)cc1 | / | 0.2
Cc1nc2ncnn2c(C)c1CCC(=O)NCCCN1CCN(c2cccc(Cl)c2)CC1 | i | 0.3
CC(O)C(=O)NCCOCCOCCNC(=O)C(C)O (stereo not given) | / | -0.4

Next section:
SMILES | VCAM-1 rise | 26S disassembly
COc1cccc(C2C(C#N)=C(N)OC3=C2C(=O)CCC3)c1OC(=O)c1ccco1 (stereo not given) | i | -1.0
Cc1c(C)n(C(=O)CN2CCN(c3ccccn3)CC2)c2ccccc12 | i | 1.7
O=C(NC1CCCCC1)C(c1ccccc1)N(Cc1ccco1)C(=O)Cn1cnc2ccccc21 (stereo not given) | i | -0.5
COc1ccc(CN2CC(C(=O)N3CCOCC3)CC2=O)cc1 (stereo not given) | / | -0.2
O=C1NC2(CCCCC2)N=C1c1ccccc1 | / | -0.9
CCCCc1nc2ccccc2n2cc3c(=O)n(C)c(=O)n(C)c3c12 | i | 0.3
CCOC(=O)C1CCCN(C(=O)c2sc3nc(-c4ccc(OC)cc4)cn3c2C)C1 (stereo not given) | / | 5.1
Cc1cccc(N2CCN(Cc3c(C)n(C)n(-c4ccccc4)c3=O)CC2)c1C | i | -0.6
Cc1nn(Cc2ccc(Cl)c(Cl)c2)c(C)c1NC(=O)c1cc(-c2ccc3c(c2)OCO3)on1 | / | 0.8
Clc1ccccc1-c1nnc2sc(-c3ccccn3)nn12 | i | 1.6
CCOC(=O)N1CCN(c2cc(=O)n(Cc3ccc(F)cc3)c(=O)[nH]2)CC1 | / | 1.6
O=C(NCc1ccco1)C1CCN(S(=O)(=O)c2cccc3cccnc23)CC1 | / | -0.9
CCC1CCCCN1c1nc(-c2ccncc2)nc2ccccc12 (stereo not given) | i | -1.3
CCCn1c(=S)[nH]c2cc(C(=O)N3CCCC(C(=O)OCC)C3)ccc2c1=O (stereo not given) | / | -0.3
Cc1cccc(NC(=O)c2ccc3ccccc3n2)n1 | i | 2.5
Cc1ccc(C)c(N2CCN(C(=O)c3ccc(CS(=O)(=O)c4ccccc4C)o3)CC2)c1 | i | 2.2
CCc1cc2c(=O)c(-c3nc4ccccc4[nH]3)coc2cc1OC(=O)N1CCOCC1 | i | 1.5
COCCCNC(=O)CC(NS(=O)(=O)c1ccc(OC)cc1)c1ccc(OC)cc1 (stereo not given) | / | -0.6
CCCN(CCC)CCNc1c(N2CCN(C(=O)OCC)CC2)c(=O)c1=O | / | 1.3
COc1ccc(CN2CC(C(=O)NCCCOC(C)C)CC2=O)cc1 (stereo not given) | i | 0.5

Some of the entries so far, tab-delimited.
SMILES	VCAM-1 rise	26S disassembly
COc1cccc(C2C(C#N)=C(N)OC3=C2C(=O)CCC3)c1OC(=O)c1ccco1 (stereo not given)	i	-1.0
Cc1c(C)n(C(=O)CN2CCN(c3ccccn3)CC2)c2ccccc12	i	1.7
O=C(NC1CCCCC1)C(c1ccccc1)N(Cc1ccco1)C(=O)Cn1cnc2ccccc21 (stereo not given)	i	-0.5
COc1ccc(CN2CC(C(=O)N3CCOCC3)CC2=O)cc1 (stereo not given)	/	-0.2

The listing continues:
SMILES | VCAM-1 rise | 26S disassembly
CCOC(=O)N1CCC(N2C(=O)c3ccc(C(=O)NCc4ccco4)cc3C2=O)CC1 | i | 1.1
CCn1c(C(Cc2ccccc2)NC(=O)COC)nc2ccccc21 (stereo not given) | i | 0.1
O=C(NC1CCCC1)c1cnc2n(c1=O)CCS2 | / | 0.4
Cc1noc(C)c1S(=O)(=O)N1CCCC(C(=O)NCCc2ccccc2)C1 (stereo not given) | / | -1.3
CCOC(=O)N1CCN(c2c(NCCc3ccc(OC)c(OC)c3)c(=O)c2=O)CC1 | / | -2.8
CCC1CCCCN1CCNC(=O)C1CCN(S(=O)(=O)c2c(C)noc2C)CC1 (stereo not given) | / | 0.3
NC(=O)CSc1oc(-c2ccc(F)cc2)nc1S(=O)(=O)c1ccccc1 | / | 7.8
CCOC(=O)N1CCN(S(=O)(=O)c2cc(C)c(C)cc2C)CC1 | i | 0.1
O=C(Nc1ccon1)c1cccc(S(=O)(=O)N2CCCC2)c1 | i | -6.1
O=C(CS(=O)(=O)c1cn(Cc2ccc(Cl)cc2)c2ccccc12)N1CCOCC1 | i | -0.6
O=C(O)CC(NC(=O)c1ccccc1NC(=O)c1ccccc1)C(=O)O (stereo not given) | i | -0.9
N#CCCS(=O)(=O)c1nnnn1-c1ccccc1 | / | 1.4
CCOc1ccc(NC(=O)C2CC(=O)N(CC)C(=Nc3ccc4c(c3)OCO4)S2)cc1 (stereo not given) | i | -12.3
C#CC(CO)N(CCN(Cc1ccccc1)C(C#C)CO)Cc1ccccc1 (stereo not given) | i | 2.1
O=C(Nc1cccc2c1CCCC2)C1CCCN(S(=O)(=O)c2cccc3nonc23)C1 (stereo not given) | / | 1.2
O=C(Cn1c(=O)oc2cc(S(=O)(=O)N3CCOCC3)ccc21)N1CCc2ccccc2C1 | / | -0.4
Cc1[nH]c(=O)[nH]c(=O)c1S(=O)(=O)N1CCC(C(=O)N2CCN(Cc3ccccc3)CC2)CC1 | / | -2.5
C=CCN=c1sc(C(=O)OC)cc(=O)n1CC=C | / | -4.5
Cc1ccc(NC(=O)CCc2c(C)nc3ncnn3c2C)nc1 | / | 0.4
CCn1cc(C(=O)NCc2ccccc2OC)c(=O)c2cc(S(=O)(=O)N(C)C)ccc21 | i | 0.0
CCOC(=O)c1ccc(Oc2cc(C)nc(SC)n2)cc1 | i | -0.3
COc1cc(NC(=O)C(C)Oc2ccccc2)c(C(=O)O)cc1OC (stereo not given) | i | 0.1
O=S(=O)(NCc1ccccn1)c1cccc2nsnc12 | / | 0.6
O=C(Cn1cnc2ccccc2c1=O)NCC(=O)N1CCN(Cc2ccc3c(c2)OCO3)CC1 | / | 0.3
Cc1noc(/C=C/N(C)C)c1S(=O)(=O)N1CCCC(C(=O)N2CCCCC2)C1 (stereo not given) | i | 0.7
CCSC1=C(C#N)C(c2cccc(OC)c2)CC(=O)N1 (stereo not given) | i | 2.3
CS(=O)(=O)NCC(c1cccnc1)N1CCN(c2ccc(F)cc2)CC1 (stereo not given) | i | 0.2
O=c1cc(CSc2nnc(-c3ccccc3)o2)c2ccccc2[nH]1 | / | 0.9
O=C(Nc1ccc2c(c1)nc1n2CCSC1)c1ccccc1 | i | 0.6
CC(=O)c1cccc(NC(=O)Nc2cc3sccc3n2C)c1 | / | 8.3

Molecules listed so far that have an NH in an aromatic ring:
SMILES | VCAM-1 rise | 26S disassembly
CCN(CC)S(=O)(=O)c1ccc2[nH]cc(C(=O)NCCN3CCCCCC3)c(=O)c2c1 | / | 0.3
O=C(CN(Cc1ccco1)C(=O)c1cc(=O)[nH]c2ccccc12)Nc1ccccc1Br | i | 0.0
O=C(CCCn1c(=S)[nH]c2ccccc2c1=O)N1CCCCC1 | i | -4.7
COc1ccc(C(=O)CSc2nc(C)cc(=O)[nH]2)cc1 | i | -1.0
O=C(CCCn1c(=O)[nH]c2ccccc2c1=O)NC1CCCCCC1 | / | -1.6
Cc1ccc(Nc2cc(=O)n(C3CCCCC3)c(=O)[nH]2)cc1C | / | 10.9
COc1ccc(-n2c(CNC(=O)c3cc(OC)c(OC)c(OC)c3)n[nH]c2=S)cc1 | / | -1.4
CCCCc1c(O)nc(SCC(=O)c2ccccc2)[nH]c1=O | i | -2.4
CCOC(=O)c1[nH]c(C)c(C(=O)Nc2ccc(C)c(F)c2)c1C | / | 4.2
CCOC(=O)N1CCN(c2cc(=O)n(Cc3ccc(F)cc3)c(=O)[nH]2)CC1 | / | 1.6
CCCn1c(=S)[nH]c2cc(C(=O)N3CCCC(C(=O)OCC)C3)ccc2c1=O (stereo not given) | / | -0.3
CCc1cc2c(=O)c(-c3nc4ccccc4[nH]3)coc2cc1OC(=O)N1CCOCC1 | i | 1.5
Cc1[nH]c(=O)[nH]c(=O)c1S(=O)(=O)N1CCC(C(=O)N2CCN(Cc3ccccc3)CC2)CC1 | / | -2.5
O=c1cc(CSc2nnc(-c3ccccc3)o2)c2ccccc2[nH]1 | / | 0.9

The list is partial; count on the stated rates, not on these rows.
